Source: PubChem BioAssay
Ba CapD inh: inhibitors of Bacillus anthracis CapD enzyme; purified CapD enzyme, fluorescence intensity read-out; stronger effect = lower value; some hits fall short of the stated cut; z-score (concentration not given with the values); hit rate 0.23% among 140,000; AID 492967;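 active means z-score under -4 in either of two replicates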;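 further: stock transfer was 100 nL into about 40 µL; score is relative to mean and spread of the plate; one replicate is shown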
AID504770: E. coli YBA685 growth inhibition, screen for V. cholerae RctB inhibitors | E. coli YBA685 rctB-dependent plasmid, OD600 growth, 3 h; stronger effect = lower value | z-score (no concentration beside the values) | hit rate 0.27% among 130,000 | AID 504770;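 active means z-score under -2 on both plates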;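 further: wells of about 30 µL received 100 nL stock; score is relative to mean and SD of the test wells; the first replicate is given; strong numbers were not always called active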
An asterisk follows results filed as active; · = not tested or not shown.

SMILES | Ba CapD inh | AID504770
O=C(O)c1cccnc1SCCS(=O)(=O)c1ccccc1 | 0.095 | ·
Cc1cc(/C=C(\C#N)C(=O)OC(C)C)c(C)n1-c1cc(Cl)ccc1Cl | · | -3.4
CCCCCCCCCCNS(=O)(=O)c1ccc2c(c1)Cc1cc(S(=O)(=O)NCCCCCCCCCC)ccc1-2 | -0.67 | ·
Nc1ccn(C2O[C@H](CO)[C@@H](O)[C@H]2O)c(=O)n1 (some centres not stated) | 0.09 | ·
COc1ccc(C(=O)COC(=O)CSc2nc(C)cc(C)n2)cc1OC | · | -0.4
CC(C)CNC(=O)c1cnn2c(C(F)F)cc(-c3ccccc3)nc12 | 5.4 | 0.05
CCC(c1nnc(SC/C(O)=C(\C#N)c2nc3ccccc3[nH]2)n1Cc1ccccc1)N(C)C (configuration not stated) | · | 0.25
CCC1=NC(c2ccccc2OC)N(O)C1(C)C (configuration not stated) | 0.59 | -1.1
COc1ccccc1NC(=O)CSc1c2c(nc3ccccc13)CCC2 | -0.1 | -1
COc1ccc(C(=O)Sc2nnc(-c3cccs3)n2-c2ccccc2)cc1 | · | -0.4
O=C(Nc1ccccc1)OC1/C(=C/c2ccccc2F)N2CCC1CC2 (configuration not stated) | -0.12 | ·
COc1ccc(NC(C(=O)O)c2ccccc2)cc1 (configuration not stated) | 0.73 | ·
COc1ccc(C(=O)NCc2nnc(SC)n2C2CCCCC2)cc1 | 0.025 | -0.75
CC1CCN(S(=O)(=O)c2ccc(F)c(F)c2)CC1 | 0.46 | 0.65
CCOC(=O)C1CCN(/C(C)=C2/C(=O)N(c3nc4ccccc4[nH]3)N=C2C)CC1 | · | -0.1
O=C(O)CCCn1c(=O)oc2ccccc21 | · | -0.4
CCC(C)NC(=O)C1c2cc(OC)c(OC)cc2C(=O)N(C)C1c1ccc(OC)c(OC)c1 (configuration not stated) | 0.53 | ·
COc1ccc(N2CCN(C(=O)CN(C)CC(=O)Nc3cccc(F)c3)CC2)cc1 | · | -0.1
Cc1cc(C)nc(SCC(=O)C2CC2)n1 | -0.17 | 0.35
COc1ccc(C(=O)CSC2=NCCc3ccccc32)cc1 | -1.3 | -0.55
Cc1ccnc(SCC(=O)N2CCc3ccccc3C2)n1 | 0.94 | -0.7
CSc1nc(N2CCCCC2)c2c(c1C#N)CCCC2 | -1.9 | 0.35
Cc1cc(C(=O)Nc2ccc3c(c2)OCCO3)cs1 | 0.13 | -0.8
CC1=NN(c2ccccc2)C(=O)C1C(c1ccc2c(c1)OCO2)C1C(=O)N(c2ccccc2)N=C1C (configuration not stated) | -0.34 | ·
S=C1NC(c2ccccc2)=NCN1c1ccc(Cl)cc1 | -0.38 | -0.65
O=C(NC(Cc1c[nH]c2ccccc12)C(=O)Nc1ccccc1)Oc1ccccc1 (configuration not stated) | -0.69 | 0
C=C(C)Cn1c(COc2ccc(Cl)cc2)nnc1SCC(=O)O | -0.27 | -0.25
O=C(C(=O)N1CCCc2ccccc21)N1CCCc2ccccc21 | 0.015 | ·
CNC(=S)NCCc1c[nH]c2ccc(OC)cc12 | 0.095 | -0.25
CCN(CCOC(=O)NNC(=O)c1ccc(Cn2cnc(Cl)c2Cl)o1)c1ccc(N=Nc2ccc([N+](=O)[O-])cc2)cc1 | -1.7 | ·
CCCc1nc2sc3c(NCCC(C)C)ncnc3c2c2c1COC(C)(C)C2 | 5.5 | ·
Cc1ccc(NC(=O)CC#N)c(C)c1 | 0.12 | ·
CC(=O)[C@@H]1[C@@H](c2ccc(F)cc2)C(C#N)(C#N)[C@H]2C=Cc3ccccc3N12 | 2.6 | ·
CC(Sc1ncnc2c1cnn2-c1ccccc1)C(=O)NC(N)=O (configuration not stated) | · | 0.55
Cc1cc(/C=N\NC(=O)COc2cccc3cccnc23)c(C)n1-c1cccnc1 | -0.62 | 1.1
Cc1ccc(NC(=O)/C(=C/c2cccc([N+](=O)[O-])c2)NC(=O)c2ccccc2Br)cc1 | -0.26 | ·
Cn1c(=O)n(C)c2cc(Nc3nc4ccc(Cl)cc4n4nnnc34)ccc21 | -0.12 | 0.45
O=C(O)c1ccc(OCC(F)(F)F)nc1 | 0.14 | 0.2
Fc1ccc(-c2noc3ncnc(N(Cc4ccco4)CC4CCCO4)c23)cc1 (configuration not stated) | 0.39 | 2.6
CCCCCCCCCCOc1ccc(OC(=O)c2ccc(OC(C)CCCC)cc2)cc1 (configuration not stated) | -1.1 | ·
O=C(Nc1ccn(-c2ccccc2)n1)c1ccccc1Br | -0.31 | -0.95
COc1ccc2c(c1)C(=NO)c1cc(OC)ccc1-2 | -0.27 | 1.7
N/C(=N\c1nc2ccccc2s1)NC(=O)c1cccc(Cl)c1 | 19 | 0.2
CC(C)(C)c1ccc(C(=O)Nc2c3c(nn2C(C)(C)C)CSC3)cc1 | · | 0.7
CC1Cc2cc(C(=O)CSc3nnc(Cc4cccs4)n3C)ccc2N1S(C)(=O)=O (configuration not stated) | · | 3
OC(c1ccccc1)C(O)c1ccccc1 (configuration not stated) | 0.23 | 1.4
CC(Sc1nncs1)C(=O)N1c2ccccc2CC1C (configuration not stated) | · | 0.2
CCN(c1ccccc1)S(=O)(=O)c1ccc2[nH]cc(C(=O)N3CCC(C)CC3)c(=O)c2c1 | -0.7 | -0.95
Cc1noc(C)c1COC(=O)c1ccc(S(=O)(=O)N(C)C)cc1 | · | 1.1
O=C(Nc1ccccc1C(=O)N1CCC(c2nc(-c3ccncc3)no2)CC1)c1ccc(C(F)(F)F)cc1 | 0.4 | ·
Cn1nc(-c2ccccc2)c(C(O)c2cccs2)c1Cl (configuration not stated) | -0.6 | 0.4
CC1Cc2ccccc2N1C(=S)Nc1ccc(S(N)(=O)=O)cc1 (configuration not stated) | -2.1 | 1
O=C(NC(=O)c1csnn1)Nc1nc2ccccc2s1 | -0.45 | ·
CCC12CN(S(=O)(=O)c3ccccc3)CC(CC)(CN(S(=O)(=O)c3ccccc3)C1)C2=O | 7.5 | 1.1
O=c1c(-c2nnnn2-c2ccc(Cl)cc2)c[nH]c2ccccc12 | -0.84 | 1.9
O=C(NCc1ccc(Cl)cc1)c1ccc(OCc2ccccc2)cc1Cl | 0.19 | ·
CCON1C(=O)CN(C(=O)OC)C1c1ccc(Cl)cc1Cl (configuration not stated) | -0.17 | ·
CCOc1cc(/C=C2\C(=N)N3C(C)=CSC3=NC2=O)ccc1OCc1ccc2c(c1)OCO2 | 0.57 | -0.15
COc1ccc(Oc2ccccc2C#N)cc1 | -0.58 | 0.8
CC1=C(C(=O)Nc2ccccc2)C(c2ccccc2)C(C#N)=C(SCC(=O)Nc2ccc(Oc3ccccc3)cc2)N1 (configuration not stated) | 49 | ·

(further entries)
SMILES | Ba CapD inh | AID504770
OCc1nc2ccccc2n1Cc1ccc2ccccc2c1 | · | -0.1
CCCNC(=O)c1ccccc1N | 42 | 1.7
Cc1nc(-n2cccc2)sc1C(=O)NN1C(=O)C2CC=CCC2C1=O (configuration not stated) | 8.8 | ·
CNC(=O)c1cc(-c2ccc(Cl)cc2)n(-c2cc(Cl)ccc2Cl)n1 | 0.54 | ·
O=S(=O)(c1ccccc1)N1N=C(c2ccccc2)CC1c1ccccc1F (configuration not stated) | -0.18 | ·
CSc1ccccc1C(=O)NCc1ccc2c(c1)OCO2 | -0.64 | -0.35
O/N=C/c1c(OCc2ccccc2)ccc2ccccc12 | 10 | 0.7
CC(C)(C)OC(=O)N1CCC[C@H]1C(=O)OCC(=O)Nc1ccc2c(c1)OCCCO2 | · | -0.85
CCC(Sc1nnc2c3ccccc3n(C)c2n1)C(=O)NC(C)c1ccccc1 (configuration not stated) | -0.25 | 2.4
N/C(=N/OC(=O)c1ccccc1)c1ccccn1 | · | -0.65
NNC(=O)CNC(c1ccccc1)c1cc(Br)ccc1NC(=O)CCN1CCOCC1 (configuration not stated) | · | -1
CCOc1ccc2nc(NC(=O)C(CC(C)C)NS(=O)(=O)c3ccc4c(c3)oc(=O)n4C)sc2c1 (configuration not stated) | 0.005 | 1.7
O=C(O)c1ccc(S(=O)(=O)Cc2ccccc2)cc1 | 0.14 | 0.55
CCOC(=O)N1CCN(S(=O)(=O)c2ccc(C(=O)Nc3nc4ccc(OC)cc4s3)cc2)CC1 | -0.17 | ·
CC(=O)N1C(=O)c2ccc([N+](=O)[O-])cc2C1=O | -0.65 | ·
CCCCCC(=O)N1c2ccccc2NC2=C(C(=O)CC(c3ccco3)C2)C1c1ccc(OC)c(OC)c1 (configuration not stated) | 10 | ·
O=C(NCc1ccc2c(c1)OCO2)c1cc(=O)[nH]c2ccc(Br)cc12 | -1.2 | 0.45
O=c1[nH]c(NC2CCN(Cc3ccccc3)CC2)nc2c1CCCC2 | · | -0.25
CC(C)N(C(=O)Cn1nc(C(=O)O)c2ccccc2c1=O)C(C)C | · | -0.6
O=C1c2ccccc2-c2onc3c(NCc4ccccc4)cc(Nc4ccccc4)c1c23 | 0.3 | ·
O=C(CSc1ncccn1)NCCc1ccccc1 | · | -1.4
CC1=C(C#N)C(=O)NC(=O)/C1=C\c1ccc(-c2ccc(S(N)(=O)=O)cc2)o1 | · | 0.65
Cn1nc(C(C)(C)C)c(NC(=O)c2sccc2Cl)c1C(C)(C)C | -0.28 | 0.5
CCOC(=O)c1ccc(NC(=O)CS(=O)(=O)C(C)C)cc1 | 1.9 | -1.1
O=c1oc2cc(O)ccc2cc1-c1csnn1 | 89 | -0.45
CCCCCCc1ccc(C(=O)NCc2cccc(OC)c2)cc1 | -0.24 | ·
O=C(O)CCCN1C(=O)/C(=C/c2ccc(-c3ccccc3F)o2)SC1=S | · | -0.25
COc1ccc(COCC(O)CNCc2cccnc2)cc1OC (configuration not stated) | · | 0.25
CC1CCC(C(C)C)C(OC(=O)Cn2c[n+](C)c3ccccc32)C1 (configuration not stated) | -0.64 | 1.5
Oc1ccc(-c2[nH]ncc2Oc2ccccc2)c(O)c1 | -0.005 | -0.35
NC(=O)C1CN(C(=O)Cn2ccc(C(F)(F)F)n2)c2ccccc2O1 (configuration not stated) | · | -0.25
CCCN1CCN(CC(=O)NC(C)c2ccccc2)CC1 (configuration not stated) | -0.71 | 1.7
COC(=O)c1sc(C(C)(C)C)cc1NS(=O)(=O)c1ccc(OC)cc1 | 0.46 | 0.5
CCN(CC)C(=O)CN1C(=O)/C(=C/c2ccccc2)SC1=S | · | -0.45
COc1ccc(N2C3=[N+](CCCCC3)CC2(O)c2ccccc2)cc1 (configuration not stated) | -0.08 | 0
Cn1c(CC(=O)c2ccc(O)cc2O)nc2ccccc21 | 9.4 | -1.1
CCS(=O)(=O)CCSc1nsc(SCCS(=O)(=O)CC)c1C#N | -0.12 | 1.2
COc1ccc2c(c1)sc(=NC(=O)C1COc3ccccc3O1)n2C (configuration not stated) | 9.4 | -0.35
O=C1NCCCCC1N1CNC(=S)NC1 (configuration not stated) | 0.85 | ·
CCN1CCN(Cc2c(C(=O)OC(C)C)nnn2-c2nonc2N)CC1 | -0.96 | ·
CCCOc1ccc(-c2c3c(=O)c4ccccc4c3nc3c2c(=O)c2ccccc23)cc1 | 0.44 | ·
O=C(O)c1cccc(N2CCCC2=O)c1 | -0.1 | -1.1
COc1ccc(-c2nc(C#N)c(NCc3ccccc3)o2)cc1 | · | 0.95
CN1CCN(C)C(C(=O)NNC(=O)OCCc2ccc(Br)cc2)C1 (configuration not stated) | 0.49 | ·
CCN1C(=O)/C(=C2/C=Cc3ccccc3N2CC)S/C1=N\c1ncn[nH]1 | -0.83 | ·
Cc1cc(Cl)ccc1OC(C)C(=O)N1CCc2ccccc21 (configuration not stated) | · | 0.1
CCOC(=O)C1=C(C)NC(=O)NC1c1cccc(OC)c1O (configuration not stated) | -0.005 | ·
CCOc1ccccc1NC(=O)c1cc(S(=O)(=O)N2CCN(c3cc(C)ccc3C)CC2)ccc1F | 0.04 | ·
CCCCOC(=O)c1ccc(-c2n[nH]c(=O)c3ccccc23)cc1 | -0.38 | ·
COc1ccc(OCCCN2CCCCC2)cc1 | -0.2 | 0.3
O=C(Oc1cccnc1I)c1cccc(C(F)(F)F)c1 | 0.19 | -0.4
O=S(=O)(c1ccc(-c2ccc(S(=O)(=O)N3CCSCC3)cc2)cc1)N1CCSCC1 | 0.18 | -0.65

Arranged by molecular weight (ascending): part of the list above
SMILES | Ba CapD inh | AID504770
O=C(O)c1cccc(N2CCCC2=O)c1 | -0.1 | -1.1
O=C1NCCCCC1N1CNC(=S)NC1 (configuration not stated) | 0.85 | ·
COc1ccc(OCCCN2CCCCC2)cc1 | -0.2 | 0.3
Cn1c(CC(=O)c2ccc(O)cc2O)nc2ccccc21 | 9.4 | -1.1
COc1ccc(-c2nc(C#N)c(NCc3ccccc3)o2)cc1 | · | 0.95
CCOC(=O)C1=C(C)NC(=O)NC1c1cccc(OC)c1O (configuration not stated) | -0.005 | ·
CCCCOC(=O)c1ccc(-c2n[nH]c(=O)c3ccccc23)cc1 | -0.38 | ·
CCN(CC)C(=O)CN1C(=O)/C(=C/c2ccccc2)SC1=S | · | -0.45
COc1ccc(N2C3=[N+](CCCCC3)CC2(O)c2ccccc2)cc1 (configuration not stated) | -0.08 | 0
COc1ccc2c(c1)sc(=NC(=O)C1COc3ccccc3O1)n2C (configuration not stated) | 9.4 | -0.35
COC(=O)c1sc(C(C)(C)C)cc1NS(=O)(=O)c1ccc(OC)cc1 | 0.46 | 0.5
O=C(Oc1cccnc1I)c1cccc(C(F)(F)F)c1 | 0.19 | -0.4
CN1CCN(C)C(C(=O)NNC(=O)OCCc2ccc(Br)cc2)C1 (configuration not stated) | 0.49 | ·
CCS(=O)(=O)CCSc1nsc(SCCS(=O)(=O)CC)c1C#N | -0.12 | 1.2
CCCOc1ccc(-c2c3c(=O)c4ccccc4c3nc3c2c(=O)c2ccccc23)cc1 | 0.44 | ·
O=S(=O)(c1ccc(-c2ccc(S(=O)(=O)N3CCSCC3)cc2)cc1)N1CCSCC1 | 0.18 | -0.65
CCOc1ccccc1NC(=O)c1cc(S(=O)(=O)N2CCN(c3cc(C)ccc3C)CC2)ccc1F | 0.04 | ·
